From PubChem BioAssay
UUG fidelity: modulators of yeast start codon fidelity, primary screen, whole organism, S. cerevisiae, single point, plate reader. 350,000 tested, 0.13% active. activity score, % at 18.7 µM. S. cerevisiae UUG-firefly luciferase reporter, luminescence/redox ratio;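 active = replicate mean at a twofold rise or more, about +100% in these data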;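 note: firefly luciferase made from a UUG start codon reports start codon fidelity; reporter light over untreated wells divided by growth signal over untreated wells; some hits fall short of that in this replicate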
Env fusion inh: inhibitors of HIV-1 Env-driven cell-cell fusion, primary screen, HeLa-JRFL effector, CEM21 target cells, luciferase; 360,000 tested, 1.1% active; inhibition, % at 12.3 µM;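 active = mean replicate inhibition score of at least 50 and every replicate individually at or above 50; inconclusive = only one of the two criteria met; inactive = mean below 50 and not all replicates reaching 50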;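 note: 0% = plate neutral controls and 100% = maraviroc near 300 nM; one replicate is shown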
CSC inhib: cancer stem cell viability inhibitors, primary screen, luminescence; 300,000 tested, 1.1% active; AID 2717, 2010; cancer stem cell-like cells viability; inhibition, % at 7.5 µM;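 active = mean at 75% or more and at least half the replicates too; inconclusive = mean and replicates disagree; tested in HMLE shEcad cells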;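 note: 0% = median of negative and 100% = median of positive control wells; the first replicate is given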
MT1-MMP act inh: blockers of MT1-MMP proenzyme processing, primary screen, HT1080 RFP-PRO-GFP cells, GFP/RFP fluorescence; AID 651647, 2012; GFP/RFP ratio fluorescence, overnight; percent of plate control window, DMSO zero; 360,000 tested, 0.061% active; GFP/RFP ratio change, % at 20 µM; Matrix metalloproteinase-14 (Homo sapiens), P50281;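 active = GFP/RFP ratio change of at least 30% with cell ATP level not reduced by more than half and red fluorescence within 50% of control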; note: strong numbers were not always called active
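Assay system: HT1080 cells carrying an RFP-PRO-GFP reporter | Dosing: Single dose of 20 µM compound, 1% DMSO final | Incubation: Cells overnight before dosing, compound overnight, 37 °C, 5% CO2 | Evaluation: GFP/RFP fluorescence ratio | Control set: DMSO and RFP-L50D-GFP cell wells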
Rce1 inh: yeast Rce1p protease inhibitors, primary screen, biochemical, fluorescence, cell-free homogeneous; yeast membranes, quenched prenylated peptide cleavage fluorescence; calls only; 290,000 tested, 0.27% active;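 active = fall in fluorescence gain of 50% or more versus controls, with final raw signal at or below 3038400; inconclusive = same 50% fall but final raw signal above 3038400; inactive = fall in fluorescence gain under 50%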;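 note: plate controls were neutral control wells for no effect and wells lacking membranes for full effect; tested at 10 µM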
eIF4H inh: human eIF4H binding inhibitors, primary screen, translation initiation inhibitor project, biochemical, uHTS, fluorescence polarization; 290,000 tested, 0.94% active; AID 2012, 2009; inhibition, % at 35 µM; eIF4H fluorescence polarization binding assay;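 active = 50% or more with normal probe brightness, or confirmed in later tests; inconclusive = above 50% with abnormal brightness, or retests that disagree; inactive = below 50% or failed in later tests; about a fifth of its hits are not listed in these tables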;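 note: calls also rest on retests at 20 µM and on dose response follow-up; 0% = protein and probe with vehicle and 100% = probe without protein; strong numbers were not always called active; many hits fall short of the cut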
PABP FP inh: PABP poly(A) RNA binding inhibitors, primary screen, biochemical, fluorescence polarization, uHTS; Polyadenylate-binding protein 1 (Homo sapiens), P11940; inhibition, % at 35 µM; 290,000 tested, 1% active; AID 2014, 2009;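 active = 50% or more with normal probe brightness, or confirmed in later tests; inconclusive = above 50% with abnormal brightness, or retests that disagree; inactive = below 50% or failed in later tests; about a fifth of its hits are not listed in these tables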;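 note: calls also rest on retests at 20 µM and on dose response follow-up; controls were probe without protein and protein plus probe with vehicle; some compounds called inactive have numbers as strong as hits; many hits fall short of the cut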
Target sequence (P11940 whole entry, looked up): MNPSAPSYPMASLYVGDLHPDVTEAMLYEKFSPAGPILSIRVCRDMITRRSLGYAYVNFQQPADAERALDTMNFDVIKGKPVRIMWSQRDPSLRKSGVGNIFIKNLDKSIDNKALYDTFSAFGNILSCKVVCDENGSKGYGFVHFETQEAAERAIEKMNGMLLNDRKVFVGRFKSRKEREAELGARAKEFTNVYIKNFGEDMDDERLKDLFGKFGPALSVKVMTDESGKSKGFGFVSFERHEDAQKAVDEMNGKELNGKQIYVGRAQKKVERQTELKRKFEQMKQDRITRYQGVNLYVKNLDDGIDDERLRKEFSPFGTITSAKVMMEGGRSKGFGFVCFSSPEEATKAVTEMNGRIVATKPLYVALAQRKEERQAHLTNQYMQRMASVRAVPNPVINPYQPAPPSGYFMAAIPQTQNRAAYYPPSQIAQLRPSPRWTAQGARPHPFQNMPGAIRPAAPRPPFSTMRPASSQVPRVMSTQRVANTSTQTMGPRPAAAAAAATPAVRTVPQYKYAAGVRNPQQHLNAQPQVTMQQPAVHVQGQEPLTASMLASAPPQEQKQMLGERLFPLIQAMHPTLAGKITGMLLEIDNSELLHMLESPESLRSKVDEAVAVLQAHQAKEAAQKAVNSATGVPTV
MT1-MMP act inh RFP: recorded beside MT1-MMP act inh, whose call it bears; RFP signal change, %; measured here: RFP expression control read;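 0 = vehicle wells; hits needed this value within 50% of zero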
The depositor's hits bear a star; i = inactive; ? = inconclusive; / = no result given; & = joins results of further samples. Compounds were not picked by outcome; overall some 2.9% were active at least once.

structure	UUG fidelity	Env fusion inh	CSC inhib	MT1-MMP act inh	MT1-MMP act inh RFP	Rce1 inh	eIF4H inh	PABP FP inh
Cn1c(=O)c2cc(S(=O)(=O)NCCC(=O)NCCc3ccc(Cl)cc3)ccc2n(C)c1=O	-13	?	-8	-3	-1	i	-14	-17
O=c1[nH]c2ccc(Cl)cc2c(-c2ccccc2)c1SC(=S)N1CCOCC1	/	/	-14	4	-3	i	0	-9
CCNC(=O)/C(C#N)=C/c1c(N2CCN(c3cccc(Cl)c3)CC2)nc2c(C)cccn2c1=O	-3	5	4	-3	-4	i	-8	4
Cc1cccn2c(=O)c(C(=O)NC3CCCCC3)c(O)nc12	6	-7	-19	-1	1	i	-10	4
COc1ccc(CCn2c(NCCCN3CCOCC3)nc3c2c(=O)[nH]c(=O)n3C)cc1	-11	/	-1	-5	-5	i	-4	-3
COc1cccc(-c2cc(C(=O)NCc3ccco3)c3ccccc3n2)c1	20	-144	-7	0	-3	i	9	0
Cc1nnc(SC(C)C(=O)NC2CCCCC2C)s1 (configuration not stated)	0	5	/	2	1	i	/	/
COc1ccc(C=CC(C)=NNC(=O)c2ccncc2)cc1	-18	5	/	6	2	/	/	/
Cc1nn(-c2ccccc2)c(C)c1C(=O)OCC(=O)Nc1ccccc1	-9	/	6	-2	-5	/	/	/
Cc1ccc(S(=O)(=O)N(C)C[C@@H]2Oc3ncc(C#CCC(C)C)cc3C(=O)N([C@H](C)CO)C[C@H]2C)cc1	81&23&13	1	/	-16	-14	/	/	/
CC(C)NS(=O)(=O)c1ccc(CCC(=O)NCc2ccco2)cc1	-9	12	/	1	3	i	-5	4
CNC(=O)c1ccccc1Sc1cccc2cccc(C(=O)O)c12	-12	9	-11	0	3	i	-6	-4
COc1ccccc1N=C1SC(C(=O)Nc2cccc(Cl)c2Cl)C(N)=C1C(N)=O (configuration not stated)	/	-15	79*	-5	-8	i	-7	-3
O=C(Nc1ccccc1SCC1CSc2nc3ccccc3c(=O)n21)c1ccccc1 (configuration not stated)	-11	/	-3	-1	6	i	-1	-2
Cc1cc(NC(=O)C2CC(=O)N(c3ccccc3)C2)no1 (configuration not stated)	/	19	6	-2	4	i	4	-2
COCCN(C(=O)COC(=O)c1ccc(Cl)s1)c1c(N)n(Cc2ccccc2)c(=O)[nH]c1=O	/	-15	-1	1	3	i	/	/
NC(=S)N/N=C/c1ccccc1OC(=O)/C=C/c1ccccc1	-41	-20	-5	3	2	i	-10	-6
COc1ccc(OC)c(C(C)NC(=O)c2ccco2)c1 (configuration not stated)	/	/	7	-2	2	i	-6	4
CC1CCCCN1C(=O)C1CCN(c2nc(-c3ccccc3)nc3c2CCC3)CC1 (configuration not stated)	/	8	-8	0	-6	i	-6	-6
Cc1ccc(C)c(S(=O)(=O)NCC(=O)OCC(=O)Nc2sccc2C(N)=O)c1	-7	-5	/	4	7	/	/	/
COc1ccc(Cn2c(=O)[nH]c3cc(C(=O)NCCCN4CCCC4)ccc3c2=O)cc1	-15	-21	-22	-1	0	i	-16	-27
O=c1cc(-c2nn[nH]n2)[nH]c(=O)[nH]1	-19	0	/	0	-2	/	/	/
COC(=O)C1=C(C(=O)OC)[C@]2([C@@H]3CCCCN[C@@H](Cc4ccccc4)C(=O)N3Cc3ccccc3)C=C[C@H]1O2	-7	-1	/	-27	-27	/	/	/
COC(=O)C1=C(C(=O)OC)[C@@H]2N(C)c3ccccc3[C@@]23C[C@@H](CO)N(C(=O)C2CCC2)C3=N1	-14	-8	11	0	0	i	/	/
Cc1ccc2c(CC(=O)OC(C)C(=O)Nc3ncc(Cl)cc3Cl)coc2c1 (configuration not stated)	-17	/	-1	-1	6	i	12	9
CSc1sc(C(=O)NNC(C)=O)c2c1C=CCC2	-21	-2	-3	0	2	i	4	-13
COc1ccc(-c2cc(N)n(S(=O)(=O)c3ccc(F)cc3)n2)cc1OC	-18	29	7	0	-27	i	-8	1
COc1ccc(-n2ncc3c(N4CCCc5ccccc54)ncnc32)cc1	-51	/	/	-6	-8	/	-7	0
O=C(Nc1cccnc1)c1cc(-c2ccccc2)on1	-27	6	22	10	-1	i	0	-6
CCCn1nc(NC(C)=O)c2cc3cccc(C)c3nc21	-5	-8	13	-2	-1	i	-3	-3
CN(C)Cc1cc(C(C)(C)C)c(O)c(C(C)(C)C)c1	0	-24	-7	4	-3	/	-8	-9
O=C(CCNS(=O)(=O)c1ccccc1)N1CCOCC1	-7	-123	4	-3	4	i	-11	-6
Cn1c(=O)c2c(nc(SCC(=O)NCc3ccc4c(c3)OCO4)n2Cc2ccc(F)cc2)n(C)c1=O	-21	137*	0	-4	-4	i	-6	18
CS(=O)(=O)Oc1ccc(Br)cc1/C=C1/N=C(c2ccco2)OC1=O	/	-4	-2	0	0	i	6	10
C=CCOc1ccc(/C=C2\N=C(C)OC2=O)cc1OC	/	32	1	-1	-4	i	-14	-7
CCOc1cc(/C=N/Nc2nc(=O)[nH]nc2C)ccc1O	-25	-21	-4	7	3	i	-4	33
O=C(CNC(=O)c1ccccc1Cl)NC1CCN(Cc2ccccc2)CC1	-28	8	-2	-3	-5	i	-12	-2
O=C(N1CCOCC1)C12CC3CC(C1)CC(C(=O)N1CCOCC1)(C3)C2	-16	-22	1	2	3	i	-8	-5
C[C@@H]1CN([C@H](C)CO)C(=O)c2cc(NC(=O)c3ccncc3)ccc2O[C@@H]1CN(C)C(=O)Nc1ccccc1	4&-3	-7	1	1	3	/	/	/
CCOc1cccc2c1OC1(C)CC2NC(=O)N1c1cccc(Cl)c1 (configuration not stated)	-10	-15	-6	5	-2	i	0	0
C/C(=N\OC(=O)c1ccc(F)cc1)c1sc(-c2ccc(Cl)cc2)nc1C	-14	-125	-22	-1	0	i	/	/
O=C(COc1ccc(Br)cc1Cl)c1ccc[nH]1	-6	-2	5	-5	-4	i	14	-21
O=C(C[C@H]1CC[C@@H]2[C@H](COC[C@@H](O)CN2Cc2cccc(F)c2)O1)NCC1CCCCC1	-3	-26	/	2	-7	/	/	/
COc1ccccc1CNC(=O)CN(c1cccc([N+](=O)[O-])c1)S(C)(=O)=O	10	23	-3	-4	4	i	-3	-8
Cc1cccc(NC(=O)CNC(=O)COc2ccc(-c3ccc(C#N)cc3)cc2)c1C	/	26	-1	-3	-1	i	-5	-8
COc1ccc(/C=N/N=C2\SCC(=O)N2c2c(C)n(C)n(-c3ccccc3)c2=O)cc1OC	/	-11	-11	1	2	i	-4	-1
CC(C)(C)c1ccc(OCC(=O)Nc2cccc(S(=O)(=O)NC3=NCCCCC3)c2)cc1	5	-6	/	4	-7	/	/	/
COc1ccc(C(=O)c2cc([N+](=O)[O-])ccc2N2CCCC2)cc1	/	?	-12	-7	-15	i	-9	-14
COc1ccccc1N(C(=O)Cn1nnc(-c2ccc(C)o2)n1)C(C(=O)NC1CCCC1)c1ccncc1 (configuration not stated)	-13	-9	-33	-2	-1	i	-8	2
Cc1cc(=O)oc2c3c(cc(OCC(=O)NCc4ccncc4)c12)OC(C)(C)CC3	-14	/	61	-1	0	i	27	42

(cont.)
structure	UUG fidelity	Env fusion inh	CSC inhib	MT1-MMP act inh	MT1-MMP act inh RFP	Rce1 inh	eIF4H inh	PABP FP inh
CCc1ccccc1NC(=O)CNC(=O)c1ccc(-n2cncn2)c([N+](=O)[O-])c1	/	5	-7	-9	-4	i	/	/
Cc1cc(C)c(C2=Nn3c(C)nnc3SC2C)cc1C (configuration not stated)	-17	-4	/	2	-11	i	-11	6
COc1ccc(OC)c(CNC(=O)Cc2c(C(=O)O)[nH]c3ccccc23)c1	8	19	11	8	5	i	7	3
Cc1ccc(S(=O)(=O)Nc2cc(-c3ccccc3)nn2C)cc1	-4	-3	-2	-1	3	i	-5	-8
COc1ccc(NC(=O)c2cc(-c3ccc4c(c3)OCO4)on2)cc1	-10	-15	19	4	1	i	-12	7
CC1=NN(C(=O)c2ccoc2C)C(O)(C(F)(F)F)C1 (configuration not stated)	/	3	-8	3	6	i	-13	4
COc1cccc(N2CCN(CC(=O)NC3=Nc4ccccc4N=C(C)C3c3ccccc3)CC2)c1 (configuration not stated)	-20	50	4	4	-5	i	5	7
CC(=O)c1ccc(OCCCC(=O)N2CCN(S(=O)(=O)c3ccc(C(C)C)cc3)CC2)cc1	16	13	-4	-20	-30	i	/	/
CC1CCc2ccccc2N1CC(=O)Nc1cccc(S(=O)(=O)N2CCCC2)c1 (configuration not stated)	-16	10	/	9	-11	/	/	/
CCCc1cc(C(=O)N2CCCC(C(=O)c3cccc4ccccc34)C2)n(C)n1 (configuration not stated)	/	41	-2	-3	-19	i	0	1
CC(C)Cc1ccc(C(C)NC(=O)c2ccc(=O)[nH]c2)cc1 (configuration not stated)	-3	-11	-16	-3	-12	i	-1	-4
CCn1c(=N)n(CC(O)COc2cccc(C)c2)c2ccccc21 (configuration not stated)	-14	9	1	-6	2	i	-4	7
O=C(COc1ccccc1)Nc1ccc(N2CCCCC2)cc1	-19	/	6	4	-5	i	/	/
Cc1cc2nc3c(c(=O)n2[nH]1)CCCC3	-23	/	-22	0	1	i	1	3
Cc1nn(Cc2ccc(F)cc2)c(Cl)c1/C=N/NC(=O)c1ccccc1	/	6	60	-5	-9	i	-16	-5
COc1ccc(NC(=O)c2ccc(C(=O)c3ccccc3)o2)cc1	-11	13	3	0	-9	/	-5	-2
O=C(O)CCCNc1c(C(=O)Nc2ccc(Cl)cc2)cc([N+](=O)[O-])cc1[N+](=O)[O-]	/	-7	29	3	4	i	2	-12

One compound at a time, as listed above. Order of values: UUG fidelity	Env fusion inh	CSC inhib	MT1-MMP act inh	MT1-MMP act inh RFP	Rce1 inh	eIF4H inh	PABP FP inh
Cc1cc2nc3c(c(=O)n2[nH]1)CCCC3 across the screens: -23	/	-22	0	1	i	1	3
Cc1cccc(NC(=O)CNC(=O)COc2ccc(-c3ccc(C#N)cc3)cc2)c1C across the screens: /	26	-1	-3	-1	i	-5	-8
